PKA kinase inh: inhibitors of human protein kinase A | P17612 | PKA Kemptide phosphorylation, Kinase-Glo ATP luminescence | inhibition, % at 6 µM | 65,000 compounds, 0.1% hits | AID 524;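 active means inhibition above the screen-wide mean inhibition plus 3 SD, cut at about 21% in these data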; further: many of its hits are not listed in these tables
JNK3 inh: JNK3 (human) kinase inhibition. purified JNK3 kinase activity, HTS. 60,000 compounds, 0.61% hits. inhibition, % at 8 µM; in the data active means inhibition above about 17%;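 further: 0% = DMSO and 100% = reference inhibitor; many of its hits are not listed in these tables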
tolC growth inh: growth inhibitors of E. coli BW25113 tolC mutant; OD615; growth inhibition, % at 10 µM (by protocol); 65,000 compounds, 2.2% hits;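 active means growth inhibition at or above a cutoff equal to the mean over every tested compound plus 3 SD, cut at about 60% in these data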;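 further: growth measured after 20 h incubation at 37 °C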
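Test system: tolC-deleted E. coli BW25113 | Medium: LB with kanamycin 50 µg/mL | Compound dosing: Single concentration, 10 µM final per compound | Schedule: 37 °C, 20 h exposure | Measured by: OD at 615 nm | Evaluation: Percent growth inhibition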
A340 absorber: compound absorbs light at 340 nm. compound absorbance at 340 nm, fold over control. fold change at 10 µM. 65,000 tested, under 10 active;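 active means at 10 µM dose, initial 340 nm absorbance at least 2 fold that of control wells; inactive means change under 2 fold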;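 further: initial absorbance extrapolated from kinetic A340 decline of NADH oxidation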
ROCK2 blocker: ROCK2 (human) kinase inhibition; inhibition, % at 6 µM; AID 604; O75116; purified ROCK2, Kinase-Glo ATP depletion luminescence; 60,000 compounds, 0.35% hits;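 active means inhibition above the screen-wide mean inhibition plus 3 SD, cut at about 18% in these data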;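 further: plate controls were DMSO wells for no effect and Y-27632 control wells after no-enzyme background subtraction for full effect; many of its hits are not listed in these tables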
Starred values were filed as active, the others as inactive; & = joins results of further samples. These rows are one share of the data, so the mix of outcomes need not match the whole.

SMILES	PKA kinase inh	ROCK2 blocker	A340 absorber	JNK3 inh	tolC growth inh
Cc1ccc(-n2c(=O)[nH]c3c(C(N)=O)nc(CC(C)C)nc32)cc1	11	4	1	0	11
c1ccc2c(c1)CCCC2C1=NCCN1 (centres undefined)	3&-5	0&-5	1.1&0.98	9&-4	7&-5
C1CCC2=NCCCN2CC1	-8	-7	0.99	-2	-16
Cc1cn(C2C=CC(CO)O2)c(=O)[nH]c1=O (centres undefined)	2	6	1	5	6
CC(NC(=O)c1ccccc1NS(C)(=O)=O)c1ccccc1 (centres undefined)	11	8	1	2	1
O=C(O)Cn1nc(C(F)(F)F)c2c1CCC2	11	4	1	3	-10
C=C(Cl)COc1ccc2c(CC)cc(=O)oc2c1	-3	-2	1	-1	-1
COc1cc2cc(C(c3nnnn3C(C)(C)C)N3CCc4ccccc4C3)c(=O)[nH]c2cc1OC (centres undefined)	-9	4	1.1	-2	28
CCN(CC)S(=O)(=O)c1ccc(NC(=O)C2COc3ccccc3O2)cc1 (centres undefined)	7	9	0.99	-1	27
Cc1noc(NS(=O)(=O)c2ccc(N)cc2)c1C	-8&-2	2&4	0.99&1	0&-3	-30&-15
CCN(CC)S(=O)(=O)c1ccc(-c2nnc(SCC(=O)N3CCc4ccccc43)o2)cc1	4	3	1	7	-14
O=C(Nc1nnc(CC2=CCCCC2)s1)c1cccs1	0	-6	1.1	7	17

In the list so far, 2 have two or more sulfur atoms:
SMILES	PKA kinase inh	ROCK2 blocker	A340 absorber	JNK3 inh	tolC growth inh
CCN(CC)S(=O)(=O)c1ccc(-c2nnc(SCC(=O)N3CCc4ccccc43)o2)cc1	4	3	1	7	-14
O=C(Nc1nnc(CC2=CCCCC2)s1)c1cccs1	0	-6	1.1	7	17

A draw from above in order of number of heavy atoms, largest number first:
SMILES	PKA kinase inh	ROCK2 blocker	A340 absorber	JNK3 inh	tolC growth inh
CCN(CC)S(=O)(=O)c1ccc(NC(=O)C2COc3ccccc3O2)cc1 (centres undefined)	7	9	0.99	-1	27
Cc1noc(NS(=O)(=O)c2ccc(N)cc2)c1C	-8&-2	2&4	0.99&1	0&-3	-30&-15
O=C(O)Cn1nc(C(F)(F)F)c2c1CCC2	11	4	1	3	-10

Arranged by the number under JNK3 inh (lowest first): three from the list above.
smiles | JNK3 inh
CC(NC(=O)c1ccccc1NS(C)(=O)=O)c1ccccc1 (centres undefined) | 2
O=C(O)Cn1nc(C(F)(F)F)c2c1CCC2 | 3
Cc1cn(C2C=CC(CO)O2)c(=O)[nH]c1=O (centres undefined) | 5
